fixLJ activator: activators of Burkholderia fixLJ two-component system | 29,000 compounds, 0.3% hits | z-score (test concentration not listed) | B. multivorans fixK-promoter GFP reporter, 18 h; stronger effect = higher value | AID 1918990;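 active means replicate mean overnight rise in green fluorescent reporter signal, 3 or more SD over negative controls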;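 further: score is relative to vehicle wells of the plate; 300 nL library stock went into each well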
* marks the source's active call; other numbers are inactive results. Only part of the results is shown; count on the stated rates, not on these rows.

SMILES | fixLJ activator
COc1cc(C2CC(=O)N(c3ccc(C)c(Cl)c3)C3=C2C(=O)OC3)cc(OC)c1OC (stereo not given) | -2.9
Cc1[nH]ncc1CN(C)C(=O)NCCCSCc1ccc(F)cc1 | -1
COc1cccc(NC(=O)c2oc3ccccc3c2NC(=O)Cc2cccc(C)c2)c1 | 2.1
COc1ccc(CCCc2nnc(SCC(=O)Nc3ccc(Cl)cc3)o2)cc1 | -0.38
CCCCOc1ccc(C(=O)CCN2CCCCC2)cc1 | -0.54
N#Cc1ccccc1Cn1c(=O)n(Cc2ccc(C(=O)NC3CCN(Cc4ccccc4)CC3)cc2)c(=O)c2ccccc21 | -0.13
CCN(CCCNC(=O)c1cc2c(=O)n(CC)c3ccccc3c2s1)c1cccc(C)c1 | 0.57
Nc1nnc2c(n1)[nH]c1ccccc12 | -0.9
CCc1ccc(Oc2c(C(F)(F)F)oc3c(CN4CCN(C)CC4)c(O)ccc3c2=O)cc1 | 0.32
COc1ccc(C(=O)c2cn(Cc3ccc(F)cc3)c3c(F)cc(F)cc3c2=O)cc1 | 0.16
COc1cncc(C(NC(=O)Cc2ccncc2)C2CC(O)C2)c1 (stereo not given) | -1.2
COc1ccc(NC(=O)CCn2cnnn2)cc1NC(=O)c1ccccc1 | 1.1
Cc1cc(CC(=O)N2CCCC3(CCc4cn[nH]c43)C2)on1 (stereo not given) | -0.51
CCC1CCCCN1CCCNC(=O)c1cn(CC)c2ccc(S(=O)(=O)N(C)C3CCCCC3)cc2c1=O (stereo not given) | -1.5
Cc1ccc(C(C)(C)C)c(OCC(=O)NCCc2nc3ccccc3[nH]2)c1 | 0.92
CCOc1ccccc1N1CC(c2nc3ccccc3n2CCOc2ccccc2OC)CC1=O (stereo not given) | -0.39
CN(C)CCN(CCO)C(=O)c1cn[nH]c1-c1ccccc1F | 0.91
CCCS(=O)(=O)c1c(S(=O)(=O)CCC)c2cc(C(C)(C)C)ccn2c1C(=O)c1ccc(OC)c(OC)c1 | -0.14
Cc1ccc2occ(-c3cc(-c4ccccc4)nc4c3COc3ccccc3-4)c(=O)c2c1 | -0.31
CCCN(CCC)CCCNC(=O)C1CCCN(Cc2nc(-c3ccc(Cl)cc3)oc2C)C1 (stereo not given) | -1.9
CCOc1ccc(C2c3c(-c4ccccc4O)n[nH]c3C(=O)N2Cc2ccncc2)cc1 (stereo not given) | -1.8
Cc1nc2cc(-c3cccc(F)c3)nn2c(C)c1CCC(=O)NC(C)c1ccccc1 (stereo not given) | -1.9
O=C(Nc1ccc(O)c(-c2nc3ccccc3o2)c1)c1ccc(-c2cccc(Cl)c2)o1 | -1.1
Cc1ccc(-c2ncc(C(=O)N(CCO)CC(C)C)c(=O)[nH]2)cc1 | -2.4
c1ccc(-c2cc(NCCc3noc(C4CCCO4)n3)n3nccc3n2)cc1 (stereo not given) | 0.03
O=C(Nc1sc2c(c1C(=O)Nc1ccccc1Cl)CCCC2)c1ccccc1F | 0.37
O=C(c1ccc(F)cc1)c1cn(Cc2ccccc2)c2cc3c(cc2c1=O)OCO3 | -0.37
COc1ccc(S(=O)(=O)N(CC(=O)N2CCC(C)CC2)c2ccc(C)cc2)cc1 | -1.7
O=C(CCS(=O)(=O)c1nc(-c2ccc3c(c2)OCO3)cc(C(F)(F)F)n1)Nc1ccc(F)cc1F | -3.3
COc1ccccc1NC(=O)c1sc2cccc(Cl)c2c1Cl | -0.89
CCCC12CN3CC(C)(CN(C1)C3c1ccc(OCc3ccccc3)cc1)C2=O (stereo not given) | -0.37
COc1ccccc1OCc1nc(C#N)c(NCc2ccc(C)cc2)o1 | -1.1
Cc1cccc(CNC(=O)c2ccc(NC(=O)N3CCSc4ccccc43)cc2)c1 | -0.24
COCCc1nc(Cc2ccsc2)n(-c2ccncc2)n1 | 0.49
COc1cc(NC(=O)CCc2nc(-c3cccs3)no2)cc(OC)c1OC | -1.3
O=C(CN1C(=O)COc2ccc(S(=O)(=O)N3CCCCCC3)cc21)N1CCN(c2ccccc2F)CC1 | 0.11
Cc1cc2oc(=O)c(CC(=O)O)c(C)c2c2occ(-c3ccccc3)c12 | -0.63
COCCN1CC2(CCCN(C(=O)c3cn(C)c4ccccc34)C2)CCC1=O (stereo not given) | 0.75
COc1ccc(OC)c(-c2nc(CN3CCNC(=O)CC3)c(C)o2)c1 | -1
CCOc1ccc(-c2nc(SCC(=O)c3ccccc3)n[nH]2)cc1 | 0.01
COc1ccc(C(=O)Nc2c(C(=O)c3ccc(F)cc3)oc3ccccc23)cc1 | 0.58
Cn1c(=O)c2c(c3ccccc31)OC(=O)CC2c1ccc(C(F)(F)F)cc1 (stereo not given) | -1.6
COc1cc2c(cc1OC)C(COc1ccc3c(C)cc(=O)oc3c1)N(C(=O)c1cccc(OC)c1OC)CC2 (stereo not given) | 0.3
CCCCN(CCCC)CCNC(=O)Cn1nc(CC)n2c(cc3sccc32)c1=O | -0.89
CCCCc1ccc(-n2nc3cc(Cl)c(NC(=O)c4ccc(OC)cc4)cc3n2)cc1 | -2.6
O=C(O)c1csc(CCNC(=O)N2CCCCCC2c2ccco2)n1 (stereo not given) | -2.2
CCC(NC(=O)c1cc(N2CCCCC2)ccc1Cl)c1cnn(C)c1 (stereo not given) | -4.5
COc1cccc(C(=O)NCC2CCN(C(=O)CC3NC(=O)NC3=O)CC2)c1 (stereo not given) | 0.5
Cc1ccc(Cc2ccccc2C(=O)NCCN2CCNC2=O)cc1 | -2.8
CN(C)C(C(=O)NC1CCN(C(=O)Nc2ccccc2)CC1)c1ccc(F)cc1 (stereo not given) | -0.01
Cc1cc(C)cc(CCC(=O)NC2COCC2Cc2ccncc2)c1 (stereo not given) | -1.2
COc1ccc(N(C(=O)c2cccc(C)c2)S(=O)(=O)c2ccc(C)cc2)cc1 | 1.7
CCOc1ccc(-c2cc(CCCC(=O)NCCc3ccc(OCC)c(OCC)c3)no2)cc1 | 0.66
Cc1cc(CC2CN(Cc3ccccc3OC3CCCC3)CC2O)on1 (stereo not given) | 0.47
COc1cccc(CNC(=O)c2cc3c(s2)-c2c(C)cccc2OC3)c1 | 0.7
COCCn1ccnc1C1CCN(C(=O)C(C)n2ccnc2C(C)C)CC1 (stereo not given) | 1.9
CCOC(=O)c1ccccc1NC(=O)Nc1cc2c(cc1N1CCCCC1)n(C)c(=O)n2C | -0.07
O=C(Cn1c(=O)n(CCCS(=O)(=O)C2CCCCC2)c(=O)c2ccccc21)Nc1ccccc1F | -1.2
O=C(C1CCC(CNS(=O)(=O)c2ccc(Br)s2)CC1)N1CCN(c2ccccc2Cl)CC1 (stereo not given) | 0.46
COc1ccc(-c2c(C)nn(C)c2C(=O)O)c2ccc(C)nc12 | 1.4

Another view of four compounds above.
smiles,fixLJ activator
CCOC(=O)c1ccccc1NC(=O)Nc1cc2c(cc1N1CCCCC1)n(C)c(=O)n2C,-0.07
O=C(Cn1c(=O)n(CCCS(=O)(=O)C2CCCCC2)c(=O)c2ccccc21)Nc1ccccc1F,-1.2
O=C(C1CCC(CNS(=O)(=O)c2ccc(Br)s2)CC1)N1CCN(c2ccccc2Cl)CC1 (stereo not given),0.46
COc1ccc(-c2c(C)nn(C)c2C(=O)O)c2ccc(C)nc12,1.4

The list continues:
SMILES | fixLJ activator
CC(C)c1cc(C(=O)N2CCc3nnc(-c4ccccc4)n3CC2)n(C)n1 | -0.75
COc1nc2c(cc1C(=O)N1CCC3(CCCN(CC4CC4)C3=O)C1)CCC2 (stereo not given) | -0.03
CC(C)CS(=O)(=O)CCNC(=O)c1cc(-c2ccc(O)cc2)n[nH]1 | -0.77
COc1ccc(/C=C(\C#N)c2nc(-c3ccc(Cl)c(Cl)c3)cs2)cc1OC | -0.64
Cc1ccc(NC(=O)CSc2nc(-c3cccs3)cc(C(F)(F)F)n2)cc1C | 1.4
CCOc1ccccc1C(=O)Nc1ccc(S(=O)(=O)Nc2onc(C)c2C)cc1 | -0.13
COc1ccc(NC(=O)c2sc3nc4c(cc3c2N)CN(Cc2ccccc2)CC4)c(OC)c1 | 0.49
O=C(Nc1ccc(F)cc1F)c1ccc(-c2ccccc2)s1 | -0.2
O=c1cc(-c2ccccc2)nc(SCc2nc(-c3ccc(C(F)(F)F)cc3)no2)[nH]1 | -0.21
Cc1ccc(Cn2c(C)c3cnn(CC(=O)O)c(=O)c3c2C)cc1 | 0.32
CCN1CCc2nc3sc(C(=O)Nc4ccccc4OC(F)(F)F)c(N)c3cc2C1 | -0.04
CCCSc1ncc(Cl)c(C(=O)Nc2sc3c(c2C(=O)OC)CCCC3)n1 | -0.77
CCN1Cc2ccccc2CC1C(=O)N1CCc2nnc(Cc3cccnc3)n2CC1 (stereo not given) | -1.6
COc1cccc(CNC(=O)c2nn(-c3ccccc3Cl)nc2CO)c1 | -1.5
NC(=O)COc1cccc(CCC2COc3ccccc3O2)c1 (stereo not given) | -0.42

The closing three entries of the section above come first, to join the parts:
SMILES | fixLJ activator
CCN1Cc2ccccc2CC1C(=O)N1CCc2nnc(Cc3cccnc3)n2CC1 (stereo not given) | -1.6
COc1cccc(CNC(=O)c2nn(-c3ccccc3Cl)nc2CO)c1 | -1.5
NC(=O)COc1cccc(CCC2COc3ccccc3O2)c1 (stereo not given) | -0.42
COC(=O)c1ccccc1NC(=O)c1ccc2c(Cl)c3c(nc2c1)CCCC3 | -0.5
COC(=O)c1c(NC(=O)c2ccc(OC)cc2OC)sc2c1CCCCC2 | -1.2
CC(=Cc1ccco1)CN1CCN(CCn2cncn2)CC1 | -0.96
CC(=O)c1c(C)oc2ccc(N(C(=O)Oc3ccccc3)S(=O)(=O)c3ccccc3)cc12 | 0.68
CCc1cc(N2CCOc3c(O)cc(-c4cccnc4)cc3C2)ncn1 | -0.29
Cc1ccccc1-c1nc(NC(=O)CSc2ncnc3sc4c(c23)CCCC4)ns1 | -1.2
COc1cc(OC)cc(-n2c(=O)c3sccc3n(Cc3cc(=O)n4c(C)cccc4n3)c2=O)c1 | -0.23
CCOc1ccc(NC(=O)C2CC(=O)NC(=Nc3ccc(Cl)c(Cl)c3)S2)cc1 (stereo not given) | -0.31
N#Cc1ccccc1-c1ccc(CN2CC(O)CC2C(=O)O)o1 (stereo not given) | 0.31
Cc1ccc(C(=O)c2cn(Cc3cccc(Cl)c3)c3nc(C)ccc3c2=O)cc1 | -3.4
COC(=O)C1=C(C)NC(C)=C(C(=O)OCCN(C)Cc2ccccc2)C1c1cccc([N+](=O)[O-])c1 (stereo not given) | -2.5
Cc1cc(C)c2[nH]c(=O)c(-c3nccn3C3CCC(N)CC3)cc2c1 (stereo not given) | 1.8
COc1ccccc1NC(=O)CSc1oc(-c2ccco2)nc1S(=O)(=O)c1ccc(C)cc1 | -1.5
COc1cc(C(=O)NC2COCC2Cc2ccnc3ccccc23)ccc1C (stereo not given) | 0.23
Cc1ccc2nc(-c3cc(NC(=O)COc4ccc(C)c(C)c4)ccc3Cl)oc2c1 | -2.5

Molecules shown so far with a cyano group, in the order listed:
SMILES | fixLJ activator
N#Cc1ccccc1Cn1c(=O)n(Cc2ccc(C(=O)NC3CCN(Cc4ccccc4)CC3)cc2)c(=O)c2ccccc21 | -0.13
COc1ccccc1OCc1nc(C#N)c(NCc2ccc(C)cc2)o1 | -1.1
COc1ccc(/C=C(\C#N)c2nc(-c3ccc(Cl)c(Cl)c3)cs2)cc1OC | -0.64
N#Cc1ccccc1-c1ccc(CN2CC(O)CC2C(=O)O)o1 (stereo not given) | 0.31

Next part.
SMILES | fixLJ activator
CCNc1nc(C)c(C(=O)NCCc2csc(-c3cnccn3)n2)s1 | 0.59
COc1ccc(C(=O)Nc2ccc3nc(N4CCC(C)CC4)cc(C)c3c2)cc1 | -0.51
COC(=O)c1c(NC(=O)CCCOc2cccc(C)c2)sc2c1C(C(=O)OC)CC2 (stereo not given) | 0
CCCCN1CCN(c2cc(C3CC(N)C3)nc(N)n2)CC1 (stereo not given) | 0.47
CCc1cc(N(C)Cc2noc(C3CC3)n2)n2nc(C)c(C)c2n1 | -2.3
CC(C)CC(NC(=O)c1ccc(C#CC(C)(C)O)cc1)C(=O)O (stereo not given) | -1.9
COc1ccccc1CNC(=O)CSc1nc2nc(C)c(Cc3ccccc3Cl)c(C)n2n1 | -0.15
COc1cccc(C(=O)N(Cc2sccc2C)C2CCS(=O)(=O)C2)c1 (stereo not given) | -1.1
Cc1cccc(OCC(=O)N(Cc2cccc(Cl)c2)Cc2ccco2)c1C | -1.5
Cc1ccc(NS(=O)(=O)c2ccc3nc(-c4ccccc4)[nH]c3c2)cc1Cl | -1.1
O=S(=O)(c1ccc(C2CCCCC2)cc1)N1CCN(c2cc(Cl)ccc2Cl)CC1 | -1.5
CCc1ccc2c(c1)NC(c1cccnc1)=NC(c1ccc(C(C)(C)C)cc1)=N2 | -0.41
Cc1ccccc1C(=O)NC1(C(F)(F)F)N=C(c2ccccc2)N(C2CCCCC2)C1=O (stereo not given) | -0.77
CCN(CC)CCCNC(=O)c1ccc2c(=O)n(CCc3ccccc3)c(=O)[nH]c2c1 | 1
O=C1CC(c2ccc(F)cc2)c2c(c3ccccc3[nH]c2=O)O1 (stereo not given) | -0.61
COc1ccc(C)cc1NS(=O)(=O)c1ccc2[nH]c(=O)c(=O)[nH]c2c1 | -1.1
CCOc1ccc(NC(=O)Cn2cc(C(=O)c3ccc(C)c(C)c3)c(=O)c3cc(F)ccc32)cc1 | 0
COC(=O)Cc1c(C)nc2nc(NCc3ccc(Br)cc3)[nH]n2c1=O | -0.04
Cc1ccc(Cn2c(=O)c3cccnc3n(Cc3ccc(C)cc3)c2=O)cc1 | -0.69
Cc1ccc(C)c(CN2C(=O)c3ccccc3S(=O)c3ccc(C(=O)N4CCN(c5ccccc5F)CC4)cc32)c1 (stereo not given) | -1.4
COc1ccc(NC(=O)c2sc3nc(C)c(C(=O)Nc4ccc(C)cc4C)c(-c4ccc(Cl)cc4)c3c2N)cc1 | -0.68
CC(C)n1cncc1CN1CCOC2(CCN(CC(=O)N3CCCCC3)C2)C1 (stereo not given) | 0.04
COCCN(C)Cc1nc(C2CC(c3ccccc3)N3CCC[C@@H]23)no1 (stereo not given in full) | 0.64
COc1cc(OC)c(CN2CCN(C)C(C)(C)C2)c(C(=O)O)c1 | 0.63

Compound activity as filed in PubChem BioAssay.
